T cruzi repl: inhibitors of intracellular T. cruzi growth, primary screen, luminescence, NIH3T3 host cells. T. cruzi beta-gal in NIH3T3, 90 h. inhibition, % (test concentration not listed). 300,000 compounds, 1.4% hits;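 active = mean inhibition across valid replicates above about 55%, limit read from the data; inconclusive = mean below that limit but half or more replicates reach it; inactive = mean below it, under half of replicates reach it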;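 note: signal also drops with host cell toxicity which is not excluded here; 0% = plate median of DMSO wells and 100% = zero luminescence signal; higher percent means less beta-gal luminescence so fewer parasites; stock transfer was 50 nL into about 50 µL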
Vif TR-FRET: inhibitors of Vif binding to APOBEC3G peptide, primary screen, biochemical, TR-FRET, GST-Vif 1-94, biotin-A3G peptide, dose response retest (AID 1117319) | 260,000 compounds, 0.57% hits | one-dose inhibition, %; IC50 in µM for titrated hits | TR-FRET GST-Vif / biotin-A3G peptide binding; higher % means a stronger effect; test concentration not given here; strong numbers were not always called active | Virion infectivity factor (Human immunodeficiency virus type 1 group M subtype B (isolate …;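 active = above the screen mean plus three standard deviations and confirmed in dose response; inconclusive = results disagree or hit not tested in dose response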;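 note: Vif residues 1-94 fused to GST binding biotinylated APOBEC3G peptide 110-148; 0% = full assay without inhibitor and 100% = GST in place of GST-Vif; retest series ran down from 100 µM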
rRNA inh HTS: reduced GFP signal of wild-type E. coli, primary screen, bacterial rRNA inhibitor project, GFP/RFP fluorescence, OD600, single point | GFP signal change (wild-type ribosome), % (test concentration not listed) | AID 720706, 2013 | 350,000 compounds, 1.6% hits | E. coli WT GFP vs humanized-ribosome RFP mutants, 24 h; hits give low values; DMSO median 0, no signal -100;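 active = significant combined selectivity score with lowered wild-type GFP, culture density cut under 30%, mutant RFP and density less affected; inactive = any of these conditions unmet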; note: one replicate is shown; some compounds called inactive have numbers as strong as hits
MLL AF4-AF9 inh: inhibitors of AF4 peptide binding to AF9, primary screen, biochemical, AlphaScreen, biotin-AF4 peptide, FLAG-AF9, single point | inhibition, % at 10 µM | 350,000 compounds, 0.47% hits | Protein AF-9 (Homo sapiens), P42568;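 active = every replicate reaching a set inhibition limit, whatever the replicate mean, cut at about 25% in these data; inconclusive = mean inhibition reaches that limit but some replicates miss it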;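 note: 0% = plate neutral control median and 100% = total signal loss; the record names both 10 and 1 µM as test concentration; the first replicate is given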
Target sequence (P42568 whole entry, looked up): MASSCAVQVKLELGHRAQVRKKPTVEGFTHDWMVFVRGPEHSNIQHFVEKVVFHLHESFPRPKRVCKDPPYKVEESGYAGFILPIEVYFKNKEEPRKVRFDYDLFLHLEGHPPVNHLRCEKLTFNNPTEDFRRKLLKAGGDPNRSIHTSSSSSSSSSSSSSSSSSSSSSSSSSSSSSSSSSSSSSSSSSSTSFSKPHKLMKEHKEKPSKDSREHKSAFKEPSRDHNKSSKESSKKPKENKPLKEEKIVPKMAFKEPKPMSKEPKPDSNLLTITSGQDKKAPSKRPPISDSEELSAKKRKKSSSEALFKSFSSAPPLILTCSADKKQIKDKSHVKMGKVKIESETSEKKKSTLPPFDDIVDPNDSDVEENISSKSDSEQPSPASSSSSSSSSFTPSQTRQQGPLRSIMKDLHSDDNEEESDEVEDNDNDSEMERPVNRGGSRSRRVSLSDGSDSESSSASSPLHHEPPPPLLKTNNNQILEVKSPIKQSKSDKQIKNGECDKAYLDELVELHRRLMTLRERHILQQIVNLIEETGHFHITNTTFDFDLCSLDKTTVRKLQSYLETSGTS
Beta cell apopt: inhibitors of cytokine-induced beta cell apoptosis, primary screen, luminescence; INS-1E cytokine-induced death, ATP luminescence, 48 h; percent of positive-control rescue, neutral wells zero; protection from apoptosis, % (test concentration not listed); 300,000 compounds, 0.8% hits;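 active = all replicates at 75% or more, or half of them and the mean; inconclusive = half reach 75% but not the mean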;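 note: 0% = cytokine-treated negative control wells and 100% = positive control rescue; higher means more ATP so stronger rescue from cytokine killing; wells of about 40 µL received 100 nL stock; the first replicate is given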
Bfl-1 A1 inh: caspase 3/7 activation in MEF A1-2A-BIM cells, primary screen, A1 inhibitor project, cell-based, luminescence, HTS; 330,000 compounds, 0.066% hits; caspase activation, % (test concentration not listed); AID 2462, 2010; Caspase-Glo 3/7 luminescence, 3 h; percent of clofoctol response, vehicle zero;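 active = over half of replicate activation scores above 10%, or exactly half above 10 with the replicate mean above 10; inconclusive = replicate mean below 10 yet half the replicates above 10; inactive = over half of replicates below 10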;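 note: wells of about 30 µL received 50 nL stock; many hits fall short of the cut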
Calb FLC: C. albicans growth inhibition with fluconazole, primary screen, CaCi-2 strain, Alamar Blue fluorescence. AID 1979, 2009. C. albicans CaCi-2 (fluconazole-resistant clinical isolate) + fluconazole, 48 h. 300,000 compounds, 0.57% hits. growth inhibition, % (concentration not given with the values);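 active = most replicates above 75%; inconclusive = exactly half above 75%; inactive = most below 75%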;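 note: all wells also contain fluconazole at 8 µg/ml as a sub-toxic cotreatment; 0% = median of DMSO wells and 100% = median of geldanamycin control wells; wells of about 8 µL received 7.5 nL stock; the first replicate is given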
RanGTP-Imp inh: inhibitors of RanGTP-importin-beta interaction, primary screen, biochemical, FRET, CFP-Ran, YFP-importin-beta, homogeneous; Ran GTPase (GTP-bound) - importin-beta complex; cell-free CFP-Ran/YFP-importin-beta FRET ratio; inhibition, % (no concentration beside the values); 300,000 compounds, 1.1% hits; AID 2216, 2009;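 active = most replicates above 15%; inconclusive = exactly half above 15%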;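 note: 0% = DMSO wells and 100% = Ran loaded with GDP instead of GTP; wells of about 40 µL received 100 nL stock; the first replicate is given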
rRNA inh HTS OD600: second read-out of rRNA inh HTS, no call of its own (marks repeat the call); OD600 change, %; measured here: OD600 growth;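 optical density of the mix in the first replicate; 0 = DMSO median and -100 = no signal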
rRNA inh HTS RFP: further read-out of rRNA inh HTS, marked with its call; RFP signal change, %; measured here: RFP humanized mutant strains;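 first replicate; 0 = DMSO median and -100 = no signal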
Numbers without * were called inactive; ? = inconclusive; · = not tested or not shown; & = joins results of further samples.

SMILES | T cruzi repl | Vif TR-FRET | rRNA inh HTS | rRNA inh HTS OD600 | rRNA inh HTS RFP | MLL AF4-AF9 inh | Beta cell apopt | Bfl-1 A1 inh | Calb FLC | RanGTP-Imp inh
Cc1ccc(-c2ccc(/C=N/O)o2)cc1[N+](=O)[O-] | 9 | ? | -17 | -10 | -2.2 | 13 | -1 | -0.3 | -1 | -0.1
COc1cc(/C=N/N2CCN(c3ccccc3)CC2)ccc1OC(C)=O | -3 | · | 1 | 6 | -2.7 | -0.8 | -1 | -4.3 | -6 | 2.7
CCOC(=O)c1c(-c2ccco2)csc1N | -9 | 27% | · | · | · | · | -8 | 0.4 | ? | 10
CCOC(=O)CS(=O)(=O)c1ccc(O)cc1 | -19 | -2% | 14 | 4 | -2.1 | -0.6 | 2 | -0.1 | -4 | -1.3
Cc1csc(NC(=O)CSc2nnc(-c3ccc(Cl)cc3)n2N)n1 | 7 | 2% | · | · | · | · | -8 | 0.4 | -1 | 0.1
C[N+](C)(C)CCOC(=O)CCC(=O)OCC[N+](C)(C)C | · | · | 9 | 17 | 1.1 | 15&-3.0 | -2 | -0.5 | · | ·
O=C(NCc1nnc(SCC(=O)N2CCN(c3ccccc3)CC2)o1)c1c(F)cccc1Cl | 2 | · | 3 | -6 | -1.0 | -0.2 | 1 | · | 1 | 0.0
O=C1C(Cc2c[nH]c3ccccc23)NC(=S)N1C1CCCCC1 (stereo unspecified) | -9 | 12% | -41 | -63 | -3.5 | 7.5 | -8 | -1.5 | -10 | ·
CCCSc1nc(C)c(C(C)=O)cc1C#N | 9 | -9% | · | · | · | · | -2 | 0.2 | 2 | -1.0
CN(Cc1ccc(Cl)cc1)C(=O)c1cc(S(=O)(=O)N2CCOCC2)ccc1N1CCCC1 | -5 | -11% | -2 | -4 | 7.0 | 1.7 | · | -0.9 | -2 | 2.4
C=CC(=O)Nc1sc2c(c1C(N)=O)CCCC2 | -9 | · | -4 | -1 | -2.2 | 2.3 | -29 | 0.4 | 70 | -1.7
CC(/C=N/NC(=O)c1ccccn1)=C\c1ccco1 | 14 | ? | -4 | 3 | 2.7 | -0.4 | · | · | -1 | -2.5
CC1CCN(Cc2nnnn2CCCC(=O)N(C)C(C)c2ccccn2)CC1 (stereo unspecified) | 2 | · | 10 | 8 | -0.7 | -4.5 | -8 | 0.0 | -3 | -1.7
CCCOc1ccc(C(O)(CCC)CCN2CCCCC2)cc1 (stereo unspecified) | 1 | -9% | 6 | 10 | -0.8 | · | 6 | 0.8 | -5 | 1.4
COc1ccc(-c2[nH]ncc2CNCCn2cccn2)c(F)c1 | 1 | -7% | 7 | -3 | -6.2 | -9.7 | 0 | 0.4 | -1 | -1.0
CCOC(=O)c1ccccc1NC(=O)Cc1c(C(=O)O)n(C)c2ccccc12 | 0 | 2% | -11 | -11 | -1.8 | -1.9 | -5 | -4.5 | ? | -2.6
CCOP(=O)(OCC)c1nc(-c2ccc(F)cc2)oc1NCc1ccccc1 | 1 | 3% | 1 | 3 | 0.6 | 12 | 0 | 0.0 | 1 | -1.4
CC(C)(C)c1cc(C(=O)CCN2CCOCC2)cc(C(C)(C)C)c1O | 6 | 2% | -6 | -9 | 0.3 | -1.1 | 4 | 0.4 | 6 | -3.4
CCOc1cc(C)c(Cl)cc1S(=O)(=O)N(C)C | 5 | 2% | · | · | · | · | -4 | 0.4 | 2 | 2.7
Cc1ccc(C)c(OCCC(=O)Nc2cccc(S(=O)(=O)N3CCCCC3)c2)c1 | · | 1% | -2 | -28 | 4.5 | -1.9 | -8 | -0.7 | · | ·
CCOCCn1ccc2c(OCC(=O)Nc3ccc(OC)c(OC)c3)cccc2c1=O | 13 | -8% | 9 | 2 | -0.5 | -0.5 | 12 | 0.0 | -2 | 1.1
CCc1nc2ccccc2n1CC(O)COCC1CC=CCC1 (stereo unspecified) | -1 | 4% | -30 | -39 | -3.8 | -1.1 | -4 | 1.3 | -2 | -1.9
COC(=O)Nc1nnc(Cc2ccccc2)s1 | -11 | -2% | · | · | · | · | -4 | 1.1 | 1 | -1.9
CCc1ccc(N2CC(C(=O)N/N=C/c3ccccc3OC)CC2=O)cc1 (stereo unspecified) | -9 | · | 4 | 5 | -0.8 | 3.6 | -6 | -0.4 | -4 | -0.8
Cc1cc(C)c(C#N)c(SCc2ccc3c(c2)OCO3)n1 | 2 | -2% | · | · | · | · | -3 | -0.1 | -5 | 0.1
COC(=O)c1ccn(CSc2c(F)c(F)cc(F)c2F)n1 | · | 8% | -2 | -5 | -0.3 | -1.4 | -4 | 0.0 | · | ·
CCCCNc1cc(Cl)nc(N)n1 | -5 | -14% | -2 | -6 | -8.5 | -3.3 | -3 | -0.3 | -15 | 40*
CCCCCCOc1ccc(N2C(=O)CC(NCCc3ccc(S(N)(=O)=O)cc3)C2=O)cc1 (stereo unspecified) | -21 | ? | · | · | · | · | 0 | · | 1 | 4.9
CN(CC(=O)Nc1ccccc1Br)C(=O)CCc1ccccc1 | 3 | · | 0 | -1 | -0.7 | -5.5 | 0 | 0.1 | -3 | -2.0
Fc1ccc(-n2c(-c3ccco3)nc3nc4ccccc4nc32)cc1 | 3 | 6% | · | · | · | · | 1 | 0.2 | · | 3.8
Cc1ccc(-n2nnc3c(SCC(=O)NCc4ccco4)ncnc32)cc1 | -18 | 14% | · | · | · | · | -10 | 0.0 | -1 | -1.6
O=C(C1CC(c2ccc(F)cc2)=NO1)N1CCN(c2ccccc2)CC1 (stereo unspecified) | 1 | 2% | 2 | 9 | 13 | 8.0 | -4 | 0.4 | 0 | 4.4
Cc1cc(=O)oc2cc(OC(=O)CCCCCN3C(=O)c4ccccc4C3=O)ccc12 | -2 | 22% | · | · | · | · | · | -0.5 | 8 | 3.7
COc1ccc(NC(=O)Nc2cccc3c2O[C@H](CN(C)S(=O)(=O)c2ccc(OC)cc2)[C@@H](C)CN([C@H](C)CO)C3=O)cc1 | · | · | -2&-13 | 2&-10 | -0.5&1.9 | 1.3&2.3 | -6 | -0.6 | · | ·
CSCCC(C(=O)OCC(=O)c1ccc(C)c(C)c1)N1C(=O)c2cc(Cl)c(Cl)cc2C1=O (stereo unspecified) | -2 | 4% | · | · | · | · | · | 0.1 | -3 | -2.0
CC(C)(C)[C@@H]1COC(=O)[C@@H](Cc2ccc(F)cc2)CC/C=C\C[C@@H](CC(=O)N(CCO)Cc2ccccc2)C(=O)N1 | · | · | -4 | -16 | 7.9 | -6.4 | -2 | -0.2 | · | ·
COc1ccccc1NC(=O)C(C)NS(=O)(=O)c1ccc(Cl)cc1 (stereo unspecified) | -8 | 27% | · | · | · | · | 2 | 0.4 | 27 | 2.9
Cc1ccc(OCC(=O)NNc2c3ccccc3nc3ccccc23)cc1 | 42 | 30% | -6 | -11 | 5.8 | 1.1 | 58 | -0.5 | 22 | 36*
COC(=O)c1sccc1NN1C(=O)c2ccccc2C1=O | -7 | -14% | 7 | -15 | -2.6 | -3.2 | -2 | 0.5 | -4 | -2.4
CCCCCCCC(=O)Nc1cc(C(=O)NCCC)ccc1N1CCC2(CC1)CC(c1cccc(Br)c1)=NO2 | 37 | · | 17 | 22 | 9.3 | · | 7 | -1.5 | -10 | -2.2
O=S(=O)(Nc1ncnc2sc3c(c12)CCC3)c1ccc(Cl)s1 | 0 | 29% | · | · | · | · | 9 | 0.9 | 6 | 3.8
O=C(C1CC1)n1cc(C(=S)N2CCOCC2)c2ccccc21 | 2 | 8% | · | · | · | · | -4 | 1.2 | 3 | 0.2
O=C(NCc1ccccc1)c1onc(CSc2nc3ccccc3[nH]2)c1C(=O)NCc1ccccc1 | 26 | · | 3 | 1 | 0.2 | 7.6 | 4 | -0.3 | -2 | 0.0
Cc1csc(=O)n1CCC(=O)OCC(=O)Nc1ccc(S(N)(=O)=O)cc1 | · | 31% | 3 | 5 | -0.6 | 1.1 | 4 | -1.1 | · | ·
O=C(NC1CCCN(Cc2ccc(Cl)cc2)C1)c1ccnc(Cl)c1 (stereo unspecified) | 30 | · | -10 | 2 | 3.3 | 0.6 | 1 | 0.5 | -3 | -3.7
O=C(Nc1cccnc1)NC1CCCCC1 | -28 | -2% | 5 | 11 | 0.8 | -9.0 | -3 | -0.3 | -20 | -4.0
O=C(O)c1ccc2c(c1)C(=O)N(C(Cc1ccc(O)cc1)C(=O)O)C2=O (stereo unspecified) | -6 | -4% | · | · | · | · | -5 | 0.3 | -12 | -1.2
c1ccc(-n2c(SCC3CCCCO3)nnc2-c2cnccn2)cc1 (stereo unspecified) | -18 | 6% | · | · | · | · | -7 | -0.2 | 0 | 4.6
Cc1ccc(S(=O)(=O)CC(c2ccccc2)N2CCCCC2)cc1 (stereo unspecified) | -17 | -10% | 0 | -10 | -2.8 | -0.8 | -5 | -0.5 | -11 | 0.1
Nc1nc(CCl)nc(Nc2ccc3ccccc3c2)n1 | 18 | 17% | -12 | -1 | 6.0 | 3.2 | · | · | 14 | -0.5
CCCc1nc(SCC(=O)NNC(=O)c2ccc(OC)cc2)c2ccccc2n1 | · | 4% | 16 | 18 | -0.9 | -1.0 | -10 | 2.0 | 18 | 4.5
CCOc1ccccc1NC(=O)CN(C)S(=O)(=O)c1ccc(OC)c(C)c1 | -3 | -4% | · | · | · | · | -2 | 0.6 | ? | 3.3

Full records as entered above.
O=C(Nc1cccnc1)NC1CCCCC1 as listed: T cruzi repl = -28; Vif TR-FRET = -2%; rRNA inh HTS = 5; rRNA inh HTS OD600 = 11; rRNA inh HTS RFP = 0.8; MLL AF4-AF9 inh = -9.0; Beta cell apopt = -3; Bfl-1 A1 inh = -0.3; Calb FLC = -20; RanGTP-Imp inh = -4.0
O=C(O)c1ccc2c(c1)C(=O)N(C(Cc1ccc(O)cc1)C(=O)O)C2=O (stereo unspecified) as listed: T cruzi repl = -6; Vif TR-FRET = -4%; rRNA inh HTS = ·; rRNA inh HTS OD600 = ·; rRNA inh HTS RFP = ·; MLL AF4-AF9 inh = ·; Beta cell apopt = -5; Bfl-1 A1 inh = 0.3; Calb FLC = -12; RanGTP-Imp inh = -1.2

A portion of the library; count on the stated rates, not on these rows.
